Anaer choline gr: inhibitors of anaerobic choline-dependent gram-negative bacterial growth; Gram-negative bacterium anaerobic choline minimal medium, absorbance growth; stronger effect = lower value; many inactives read as strong as hits in the columns shown; calls only; hit rate 0.2% among 55,000;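 active = growth z-score on choline under -2 at 7 or 20 h with little or no fall on glycerol, limits in tiers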;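 also: stock transfer was 300 nL into about 50 µL; the organism is E. coli; final concentration not given here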
Anaer choline gr early: also measured in Anaer choline gr; calls as there; z-score; measured here: choline growth z-score, timepoint 1;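 score of optical density at 7 h as mean of two plates; lower means less growth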
* marks the source's active call; other numbers are inactive results. The list is partial. The share of hits here may be higher or lower than overall.

Results for O=C(c1ccc2c(=O)nc3c(-c4ccccc4)n[nH]n3c2c1)N1CCN(c2ccccn2)CC1 ?
Anaer choline gr: inactive; Anaer choline gr early: 0.14

How did O=C(O)c1cccn2c(=O)c3c4c(sc3nc12)CCCC4 do in these assays?
Anaer choline gr: inactive; Anaer choline gr early: 0.6

How did Cc1ccc(NC(=O)c2ccc(-n3nc(OCc4ccc(Cl)cc4)ccc3=O)cc2)cc1Cl do in these assays?
Anaer choline gr: inactive; Anaer choline gr early: 0.65

Results for CCC(=O)Nc1cccc(-c2noc(C3CCCN(C(=O)c4ccsc4)C3)n2)c1 (stereo not given) ?
Anaer choline gr: inactive; Anaer choline gr early: 0.61

How did CCOC(=O)c1c(C)[nH]c(CCC(=O)NCCc2ccc(S(N)(=O)=O)cc2)c1C do in these assays?
Anaer choline gr: inactive; Anaer choline gr early: -0.52

How did CC(=O)Nc1cccc(-c2nc(-c3ccc4c(c3)nnn4CCC(=O)N3CCCC3)no2)c1C do in these assays?
Anaer choline gr: inactive; Anaer choline gr early: 0.35

Results for CCOc1ccc(NC(=O)Cn2c(C)cc(C)c(S(=O)(=O)c3ccc(C)cc3)c2=O)cc1 ?
Anaer choline gr: inactive; Anaer choline gr early: -0.49

Results for CCN1C(=O)CCC2(C(=O)N3CCCCC3)CCCC=C12 (stereo not given) ?
Anaer choline gr: inactive; Anaer choline gr early: -0.12

What do the screens show for `CC(=O)Nc1ccc(S(=O)(=O)N2CCc3c(c(COCc4ccccc4)nn3C)C2)cc1`?
Anaer choline gr: inactive; Anaer choline gr early: -0.34

How did CN(C)CCOC(=O)c1cnn2c(C(F)(F)F)cc(-c3ccc(F)cc3)nc12 do in these assays?
Anaer choline gr: inactive; Anaer choline gr early: -0.41

What do the screens show for `CCn1c(C)c(-c2nc(C3CC3)no2)c(S(=O)(=O)NCC2CCCO2)c1C` (stereo not given)?
Anaer choline gr: inactive; Anaer choline gr early: 0.77

How did CCCCCCNC(=O)c1ccc(CNC(=O)c2ccc(OC)c(OC)c2)cc1 do in these assays?
Anaer choline gr: inactive; Anaer choline gr early: -0.81

Results for CCOc1ccccc1NC(=O)C1c2ccccc2Oc2ccccc21 ?
Anaer choline gr: inactive; Anaer choline gr early: 0.37

Results for O=C(O)CCN1C(=O)c2ccccc2S1(=O)=O ?
Anaer choline gr: inactive; Anaer choline gr early: -0.19

What do the screens show for `O=S(=O)(c1ccccc1Cl)N1CCn2cccc2C1c1ccccc1F` (stereo not given)?
Anaer choline gr: inactive; Anaer choline gr early: 1.13

How did CCCN(CCC)C(=O)c1ccc(Nc2ccnc(-c3cccc(C)c3)n2)cc1 do in these assays?
Anaer choline gr: inactive; Anaer choline gr early: -0.12

What do the screens show for `O=c1c2ccccc2n2c(SCc3ccccc3)nnc2n1Cc1ccc(F)cc1`?
Anaer choline gr: inactive; Anaer choline gr early: -0.58

What do the screens show for `O=C(NCCn1c(-c2ccncc2)nc2cccnc21)Nc1ccc(Br)cc1F`?
Anaer choline gr: inactive; Anaer choline gr early: -1.46

How did COc1ccc(-c2nnc3sc(-c4cc(CC(C)C)[nH]n4)nn23)cc1OC do in these assays?
Anaer choline gr: inactive; Anaer choline gr early: -1.39

What do the screens show for `COc1ccc(NC(=O)c2ccc3nnc(SCC(=O)Nc4ccc5c(c4)OCO5)n3c2)cc1`?
Anaer choline gr: inactive; Anaer choline gr early: -0.05

Results for Cc1cc(C)c2c(CC(=O)Nc3ccc(S(N)(=O)=O)cc3)coc2c1 ?
Anaer choline gr: inactive; Anaer choline gr early: -0.35

What do the screens show for `Cc1ccc(NS(=O)(=O)c2cc(-c3nc(C)c(C)s3)sc2C)cc1C`?
Anaer choline gr: inactive; Anaer choline gr early: -0.2

Results for O=C(Nc1ccc2c(c1)OCO2)c1nnc(C2CCN(S(=O)(=O)c3ccc(Cl)cc3)CC2)s1 ?
Anaer choline gr: inactive; Anaer choline gr early: 0.18

What do the screens show for `O=S(=O)(Nc1ccc(-c2ccc(N3CCOCC3)nn2)cc1)c1ccc2c(c1)CCCC2`?
Anaer choline gr: inactive; Anaer choline gr early: -1.04

How did CCOC(=O)c1c(NC(=O)c2ccc3c(c2)CC(c2ccc(C)cc2)OC3=O)sc(C)c1C (stereo not given) do in these assays?
Anaer choline gr: inactive; Anaer choline gr early: -0.37

How did Cc1cc(C)c(C)c(CN2C(=O)CC(C)Nc3ccccc32)c1C (stereo not given) do in these assays?
Anaer choline gr: inactive; Anaer choline gr early: 0.64

Results for Cc1cccc(N2CCN(C(=O)CN3C(=O)CC(C)(C)S(=O)(=O)c4ccccc43)CC2C)c1 (stereo not given) ?
Anaer choline gr: inactive; Anaer choline gr early: -0.05

How did CN(Cc1cccn1C)C(=O)NC1CCCCC1 do in these assays?
Anaer choline gr: inactive; Anaer choline gr early: 0.03

Results for CCOc1ccc(C(=O)N(C)CCc2noc(C(=O)NCc3ccccc3)n2)cc1 ?
Anaer choline gr: inactive; Anaer choline gr early: -1.15

What do the screens show for `CC(C)c1ccc(O)c(NC(=O)c2ccc3c(c2)OCCO3)c1`?
Anaer choline gr: inactive; Anaer choline gr early: 0.32

What do the screens show for `COC(=O)CN1C(=O)CSc2ccc(S(=O)(=O)NC3CCCC3)cc21`?
Anaer choline gr: inactive; Anaer choline gr early: -1.1

How did CN1CCN(c2ncncc2N2CCC(C(=O)N3CCCCCC3)CC2)CC1 do in these assays?
Anaer choline gr: inactive; Anaer choline gr early: -1.97

How did CCSc1nc2ccccc2n2nnnc12 do in these assays?
Anaer choline gr: inactive; Anaer choline gr early: -1.74

What do the screens show for `OCCOc1ccc(C(=C(CCCl)c2ccccc2)c2ccccc2)cc1`?
Anaer choline gr: inactive; Anaer choline gr early: 1.16

What do the screens show for `COc1cccc(NC(=O)Nc2c[nH]c(=O)[nH]c2=O)c1`?
Anaer choline gr: inactive; Anaer choline gr early: 1.66

Results for CCn1c(=O)c(C(=O)Nc2nc(C)cc(C)n2)c(O)c2ccccc21 ?
Anaer choline gr: inactive; Anaer choline gr early: 0.24

Retrieved by compound from above:
Results for CCOc1ccc(NC(=O)Cn2c(C)cc(C)c(S(=O)(=O)c3ccc(C)cc3)c2=O)cc1 ?
Anaer choline gr: inactive; Anaer choline gr early: -0.49

How did Cc1ccc(NC(=O)c2ccc(-n3nc(OCc4ccc(Cl)cc4)ccc3=O)cc2)cc1Cl do in these assays?
Anaer choline gr: inactive; Anaer choline gr early: 0.65

As a short view, some entries already given:
How did Cc1cc(C)c(C)c(CN2C(=O)CC(C)Nc3ccccc32)c1C (stereo not given) do in these assays?
Anaer choline gr: inactive; Anaer choline gr early: 0.64

Results for Cc1cccc(N2CCN(C(=O)CN3C(=O)CC(C)(C)S(=O)(=O)c4ccccc43)CC2C)c1 (stereo not given) ?
Anaer choline gr: inactive; Anaer choline gr early: -0.05

How did CN(Cc1cccn1C)C(=O)NC1CCCCC1 do in these assays?
Anaer choline gr: inactive; Anaer choline gr early: 0.03

Results for CCOc1ccc(C(=O)N(C)CCc2noc(C(=O)NCc3ccccc3)n2)cc1 ?
Anaer choline gr: inactive; Anaer choline gr early: -1.15

What do the screens show for `CC(C)c1ccc(O)c(NC(=O)c2ccc3c(c2)OCCO3)c1`?
Anaer choline gr: inactive; Anaer choline gr early: 0.32

What do the screens show for `COC(=O)CN1C(=O)CSc2ccc(S(=O)(=O)NC3CCCC3)cc21`?
Anaer choline gr: inactive; Anaer choline gr early: -1.1

How did CN1CCN(c2ncncc2N2CCC(C(=O)N3CCCCCC3)CC2)CC1 do in these assays?
Anaer choline gr: inactive; Anaer choline gr early: -1.97

How did CCSc1nc2ccccc2n2nnnc12 do in these assays?
Anaer choline gr: inactive; Anaer choline gr early: -1.74

What do the screens show for `OCCOc1ccc(C(=C(CCCl)c2ccccc2)c2ccccc2)cc1`?
Anaer choline gr: inactive; Anaer choline gr early: 1.16

What do the screens show for `COc1cccc(NC(=O)Nc2c[nH]c(=O)[nH]c2=O)c1`?
Anaer choline gr: inactive; Anaer choline gr early: 1.66

Continuation:
How did COc1ccccc1C1=NS(=O)(=O)N(C)C(C(=O)Nc2ccn(Cc3ccccc3C)n2)=C1 do in these assays?
Anaer choline gr: inactive; Anaer choline gr early: 1.01

What do the screens show for `O=C(CSc1nc(=O)n(Cc2ccncc2)c2c1CCC2)Nc1ccc(F)c(F)c1`?
Anaer choline gr: inactive; Anaer choline gr early: 1.52

What do the screens show for `O=C(NCc1cccnc1)c1[nH]c2ccccc2c1Sc1ccc(Cl)cc1`?
Anaer choline gr: inactive; Anaer choline gr early: 0.92

Results for O=C(NCc1c(-c2ccccc2)nc2n1CCS2)c1cccc(Br)c1 ?
Anaer choline gr: inactive; Anaer choline gr early: -0.22

What do the screens show for `O=C(CSc1nc(-c2ccccc2)[nH]c1-c1ccc(F)cc1)NCC1CCCO1` (stereo not given)?
Anaer choline gr: inactive; Anaer choline gr early: -0.3

How did C=C1O[C@@](CO)(n2cnc3c(N)ncnc32)[C@H](O)[C@@H]1O do in these assays?
Anaer choline gr: inactive; Anaer choline gr early: 0.11

Results for Cc1nn(-c2ccc3nnc(C)n3n2)c2c1C(c1cccc3ccccc13)CC(=O)N2 (stereo not given) ?
Anaer choline gr: inactive; Anaer choline gr early: 0.77

Results for CN1c2ccc(Cl)cc2-c2nc(SCC(=O)NC3CCCCC3)ncc2S1(=O)=O ?
Anaer choline gr: inactive; Anaer choline gr early: 0.49

What do the screens show for `Cc1nc(NC2=NCN(CCN3CCOCC3)CN2)nc2ccccc12`?
Anaer choline gr: inactive; Anaer choline gr early: -0.61

How did Cc1ccn2c(=O)cc(COc3ccc(NC(=O)CN4C(=O)c5ccccc5C4=O)cc3)nc2c1 do in these assays?
Anaer choline gr: inactive; Anaer choline gr early: -0.04

Results for Cc1ccc(NC(=O)N2CCN(Cc3nc(-c4ccc(C)cc4)oc3C)CC2)cc1 ?
Anaer choline gr: inactive; Anaer choline gr early: 1.08

What do the screens show for `CCSc1nnc(-c2nn(C)c3c2CN(S(=O)(=O)c2ccc(CC)cc2)CC3)n1C`?
Anaer choline gr: inactive; Anaer choline gr early: -1.56

Results for CC1Cc2cc(S(=O)(=O)CCC(=O)NCCC3=CCCCC3)ccc2N1C(=O)C1CC1 (stereo not given) ?
Anaer choline gr: inactive; Anaer choline gr early: -0.99

What do the screens show for `CCOc1ccc(NS(=O)(=O)c2cc(C(=O)Nc3ccc(C)cc3)n[nH]2)cc1`?
Anaer choline gr: inactive; Anaer choline gr early: -1.33

Results for CCNC(=O)N1CCCC(c2cccc(C(=O)NCCC3=CCCCC3)c2)C1 (stereo not given) ?
Anaer choline gr: inactive; Anaer choline gr early: 0.02

How did CC(C)n1c(CN2CCN(C)CC2)nc2ccccc21 do in these assays?
Anaer choline gr: inactive; Anaer choline gr early: -0.46

Results for COc1ccc(C2CC(c3c(O)cc(C)oc3=O)=NCCS2)c(OC)c1 (stereo not given) ?
Anaer choline gr: inactive; Anaer choline gr early: 0.3

What do the screens show for `O=C(Cc1cccc(F)c1)N1CCN(C(=O)c2cc3cc(Br)ccc3[nH]2)CC1`?
Anaer choline gr: inactive; Anaer choline gr early: 0.55

How did Cc1occc1-c1nnc(SC(C)C(=O)Nc2ccc3c(c2)OCCO3)o1 (stereo not given) do in these assays?
Anaer choline gr: inactive; Anaer choline gr early: 0.04

Results for CCCN1CCN(S(=O)(=O)c2cc(-c3nc(C)cs3)n(CC(=O)N3CCCCC3)c2)CC1 ?
Anaer choline gr: inactive; Anaer choline gr early: -0.23

What do the screens show for `Cc1cc(C)c(Cn2cnc3nc4c(cc3c2=O)CC(C)CC4)c(C)c1` (stereo not given)?
Anaer choline gr: inactive; Anaer choline gr early: -0.25

What do the screens show for `CNC(=O)c1ccc2c(c1)CCN2C(=O)C1CC1`?
Anaer choline gr: inactive; Anaer choline gr early: -0.76

What do the screens show for `CCOC(=O)c1nc(N2CCCC2)c2oc3ccccc3c2n1`?
Anaer choline gr: inactive; Anaer choline gr early: -0.07

How did COc1ccccc1Nc1ncnc2c1nc1n2CCCC1 do in these assays?
Anaer choline gr: inactive; Anaer choline gr early: -1.66

How did O=C1/C(=C/c2cccs2)CCC/C1=C\c1cccs1 do in these assays?
Anaer choline gr: inactive; Anaer choline gr early: 0.56

Results for CS(=O)(=O)Nc1cccc2nsnc12 ?
Anaer choline gr: inactive; Anaer choline gr early: 0.4

What do the screens show for `CC(C)n1cnc(S(=O)(=O)N2CCC(C(=O)N3CCCCC3)CC2)c1`?
Anaer choline gr: inactive; Anaer choline gr early: -0.35

How did Cc1ccc(-n2nc(C)c3nc(CCC(=O)NC4CCCC4)c(=O)n(C)c32)cc1 do in these assays?
Anaer choline gr: inactive; Anaer choline gr early: 0.15

How did COc1cccc(NC(=O)C2CCN(c3ccccc3)C2=O)c1 (stereo not given) do in these assays?
Anaer choline gr: inactive; Anaer choline gr early: -0.21

How did Cn1cccc1-c1cc2n(n1)CCC(=O)N2CC(=O)NCc1ccc(Cl)cc1 do in these assays?
Anaer choline gr: inactive; Anaer choline gr early: -1.5

How did Cc1ccc2c(c1)c1c(n2CC(O)CNc2ccccc2)C(=O)CCC1 (stereo not given) do in these assays?
Anaer choline gr: inactive; Anaer choline gr early: 0.28

How did CC1(C)Cc2nc3sc4c(=O)n(CCCc5ccccc5)cnc4c3cc2CO1 do in these assays?
Anaer choline gr: inactive; Anaer choline gr early: -0.13

Results for Cc1nc2ccccc2n(CC(=O)NCCC2=CCCCC2)c1=O ?
Anaer choline gr: inactive; Anaer choline gr early: -0.2

How did CC(C)NC(=O)Nc1ccc(-c2noc(-c3ccc4c(c3)OCO4)n2)cc1 do in these assays?
Anaer choline gr: inactive; Anaer choline gr early: -0.55

How did COc1cc(OC)c(NS(=O)(=O)c2cc(-c3noc(C)n3)cs2)cc1Cl do in these assays?
Anaer choline gr: inactive; Anaer choline gr early: 0.59

What do the screens show for `COc1cccc(-c2nc(S(=O)(=O)c3ccccc3)c(N3CCC(C)CC3)o2)c1`?
Anaer choline gr: inactive; Anaer choline gr early: 1.03

Results for CN(C)C(=O)c1ccc2c(c1)N(CC(=O)NCC1CCCO1)C(=O)CO2 (stereo not given) ?
Anaer choline gr: inactive; Anaer choline gr early: -0.3

What do the screens show for `CCC1CCCCN1Cc1nc2c(c(=O)n(C)c(=O)n2C)n1CC` (stereo not given)?
Anaer choline gr: inactive; Anaer choline gr early: -3.32

How did Cc1ccccc1NC(=O)CSCc1cc(=O)n2ccccc2n1 do in these assays?
Anaer choline gr: inactive; Anaer choline gr early: 1.14
